Screening results (PubChem BioAssay)
RE007 growth inh: less growth of the S. pombe RE007 Vpr strain; S. pombe RE007 Vpr strain, BacTiter-Glo ATP luminescence, 24 h; control for the full effect not named in the record; Potency, µM (series often up to 92.2 µM), for the others: at the highest dose activity change, negative = less growth; 360,000 tested, 0.21% active; AID 651644; active = well fitted falling curve with a large enough effect; inconclusive = small, poorly fitted or top-dose-only effect; inactive = no such curve, though single readings can be large or run the other way;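 further: on the % scale 0 is the no-effect control and ±100 the full control effect; nearly all actives have a fitted effect of over 50% in size; the assay follows cell death caused by Vpr and the record does not say whether a fall means rescue or toxicity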
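Fission yeast RE007 carrying one integrated HIV-1 vpr copy, seeded at OD 0.01 in PMG+AL medium with 23 nL pinned compound. Grown 24 h at 30 degrees; viability read by BacTiter-Glo luminescence after 5 min.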
Cruzain inh Det: inhibitors of Trypanosoma cruzi cruzain with detergent | P25779 | AID 1478 | purified cruzain, Z-FR-AMC fluorescence, 0.01% Triton | 200,000 tested, 0.43% active | Potency, µM, inactives show max response, negative = inhibition, usual class: inhibitors;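 further: plate controls were neutral wells for no effect and buffer without enzyme for full effect; nearly all actives have a fitted effect of over 40% in size; top concentration of the series not given in the record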
Target sequence (P25779 123-467 limits assumed): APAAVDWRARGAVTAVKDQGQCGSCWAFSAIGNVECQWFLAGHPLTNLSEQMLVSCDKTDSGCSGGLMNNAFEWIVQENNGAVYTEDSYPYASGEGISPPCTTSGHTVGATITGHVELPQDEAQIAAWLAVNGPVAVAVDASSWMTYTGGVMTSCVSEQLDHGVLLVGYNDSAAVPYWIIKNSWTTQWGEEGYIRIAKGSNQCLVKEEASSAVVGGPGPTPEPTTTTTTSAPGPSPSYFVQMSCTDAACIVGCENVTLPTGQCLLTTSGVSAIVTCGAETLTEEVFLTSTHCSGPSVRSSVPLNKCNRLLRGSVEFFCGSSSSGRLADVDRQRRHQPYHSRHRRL
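Enzyme 1.5 nM, Z-FR-AMC 2 uM, NaOAc 100 mM pH 5.5, DTT 5 mM, Triton X-100 0.01%; 15 min RT compound preincubation; kinetic ex360/em450, 60 s delta.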
NS1 inh: influenza NS1 inhibition | S. cerevisiae slowed by influenza A NS1, growth recovery by OD600 | Potency, µM (highest dose often 46.1 µM), without a hit: top-dose activity, positive = more growth | 270,000 tested, 0.4% active; active means well fitted rising curve with a large enough effect; inconclusive means small, poorly fitted or top-dose-only effect; inactive means no such curve, though single readings can be large or run the other way; further: nearly all actives have a fitted effect of over 50% in size
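Read-out: OD600 growth recovery of NS1-expressing budding yeast. Cells grown overnight at 30C in -URA glucose medium, washed, resuspended and diluted 1:100 in 2% galactose assay medium, pH 6.0. Same strain lacking NS1 served as positive control.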
SARS PLP yeast: SARS-CoV PLP inhibition in yeast | S. cerevisiae expressing SARS-CoV PLpro, growth rescue; control for the full effect not named in the record | Potency, µM (doses to about 32.9 µM), for the others: at the highest dose activity, positive = growth rescue | 330,000 tested, 0.19% active; active means well fitted rising curve with a large enough effect; inconclusive means small, poorly fitted or top-dose-only effect; inactive means no such curve, though single readings can be large or run the other way; further: 0% is about no effect; nearly all actives have a fitted effect of over 55% in size; growth read by luminescence after 48 h
StopGo reporter: FMDV 2A StopGo reporter, luciferase signal. human cells with a luciferase reporter of 2A StopGo recoding; control for the full effect not named in the record. Potency, µM (doses to about 57.9 µM), for the others: at the top dose signal change, negative = less light. 410,000 tested, 1.2% active. AID 1159524; active = well fitted falling curve with a large enough effect; inconclusive = small, poorly fitted or top-dose-only effect; inactive = no such curve, though single readings can be large or run the other way; tested in HEK293T cells; further: on the % scale 0 is the no-effect control and ±100 the full control effect; nearly all actives have a fitted effect of over 45% in size; luciferase light after 4 h
MARV entry inh: blocks Marburg virus binding to or entry into cells; Marburg virus pseudotyped entry inhibition, cell reporter; control for the full effect not named in the record; about a third of the inactives were read at about 46 µM; 300,000 tested, 1.8% active; Potency, µM (highest dose often 37.8 µM), inactives show top-dose activity change, negative = inhibition, actives largely listed as inhibitors; active = well fitted inhibition curve with a large enough effect; inconclusive = small, poorly fitted or top-dose-only effect, or effect the other way; inactive = flat fitted curve, though single readings scatter; tested in HEK293 cells; about a fifth of its hits are not listed in these tables; further: on the % scale 0 is the no-effect control and ±100 the full control effect; luciferase read-out
Cruzain inh noDet: inhibitors of Trypanosoma cruzi cruzain without detergent | 200,000 tested, 2.3% active | purified cruzain, Z-FR-AMC fluorescence, no detergent | Potency, µM, without a hit: max response, negative = inhibition, usual class: inhibitors;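 further: plate controls were enzyme without inhibitor for no effect and buffer without enzyme for full effect; nearly all actives have a fitted effect of over 40% in size; top concentration of the series not given in the record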
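Purified cruzain at 1.5 nM, pre-incubated 15 min with compound at room temperature in 100 mM sodium acetate pH 5.5, 5 mM DTT, 0.00005% Triton X-100. Reaction started with 2 uM Z-FR-AMC; AMC fluorescence increase over 60 s gives rate.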
LASV entry inh: Lassa virus entry inhibition; Lassa virus pseudotype entry inhibition, cell reporter; control for the full effect not named in the record; Potency, µM (highest dose often 37.9 µM), inactives show top-dose activity change, negative = inhibition, most hits filed as inhibitors; 300,000 tested, 1.2% active; active means well fitted inhibition curve with a large enough effect; inconclusive means small, poorly fitted or top-dose-only effect, or effect the other way; inactive means flat fitted curve, though single readings scatter; tested in HEK293 cells; further: on the % scale 0 is the no-effect control and ±100 the full control effect; nearly all actives have a fitted effect of over 50% in size; luciferase read-out
* = called active by the depositor; ? = inconclusive; nt = not tested or not shown; & = joins results of further samples; [ ] = another dose, or the depositor's remark. Unless noted, the call rests on the fitted dose curve; in most records, active means well fitted curve in the direction sought with a large enough effect; inconclusive means small, poorly fitted or top-dose-only effect, or another doubt; inactive means no such curve, though single readings can be large; an effect the other way counts as inactive or inconclusive. Potency means the concentration at half of the fitted maximal effect.

SMILES	RE007 growth inh	Cruzain inh Det	NS1 inh	SARS PLP yeast	StopGo reporter	MARV entry inh	Cruzain inh noDet	LASV entry inh
Cc1ccc(CNC(=O)Nc2cc(C(=O)NCc3cccc(F)c3)ccc2N2CCCC2)cc1	nt	3.5%	nt	nt	-21%	nt	4%	?
CCC1(c2ccc(Cl)cc2)NC(=O)N(Cc2ccc(C(=O)OC)cc2)C1=O (centres undefined)	21%	nt	nt	0%	?	8.9µM*	nt	?
Cc1ccc(-c2nn(-c3cccc(F)c3)cc2CN(Cc2nccn2C)C(C)C)o1	-1%	nt	6%	-3%	23%	?	nt	?
CCCCOc1ccc(/C(O)=C2/C(=O)C(=O)N(Cc3cccnc3)C2c2ccncc2)c(C)c1 (centres undefined)	-3%	-6.1%	-22%	25%	-19%	-7%	8%	29%
Cc1cc(C)c2c(n1)sc1c(-c3ccccc3)c(C#N)c(N)nc12	0%	-3.0%	4.5µM*	-2%	-19%	?	?	2%
Cc1ccc(-n2nnnc2SCC(=O)Nc2sccc2C#N)cc1	2%	-5.5%	25%	-4%	9%	15%	-10%	1%
CCN1C(=O)c2ccccc2S(=O)c2ccc(C(=O)NCCCN3CCCC3=O)cc21 (centres undefined)	7%	1.9%	0%	-2%	0%	22%&22%	-8%	-1%
CSc1nc(C)nc(N/C=C(\C#N)S(=O)(=O)c2ccccc2Cl)n1	7%	nt	5%	0%	-1%	10%	nt	14%
O=C(C[n+]1ccccc1)Nc1c(Cl)cc(Cl)cc1Cl	-13%	nt	13%	1%	-9%	14%[46.1 µM]	nt	1%[46.1 µM]
Cc1cccc(NC(=O)Nc2nnc(N3CCCCC3C)s2)c1C (centres undefined)	5%	2.2%	-1%	7%	24%	nt	?	nt
COc1ccc(S(=O)(=O)Nc2cc(C(=O)NCCCOC(C)C)ccc2N2CCOCC2)cc1	3%	nt	nt	0%	-8%	-1%	nt	-15%
COc1cccc(NC(=O)CSc2nc3ccccc3nc2N2CCCC2)c1	-6%	nt	-4%	-8%	3%	nt	nt	nt
CCOc1cc(NC(=S)NCCCN2CCOCC2)c(OCC)cc1NC(=O)C(C)C	8%	1.5%	-3%	-24%	-13%	8%	-2%	9%
Cc1cccc(C)c1OCCNC(=O)C(=O)NCc1ccco1	5%	nt	1%	-2%	-15%	?	nt	?
Cc1ccc(CNC(=O)CCC2CCCN(Cc3cccc4ncccc34)C2)o1 (centres undefined)	1%	nt	-7%	-2%	-2%	-27%[46.1 µM]	nt	?
COc1cccc(OCC(=O)NC2CC(=O)N(c3cccc(OC)c3)C2)c1 (centres undefined)	nt	-1.6%	nt	nt	-11%	nt	5%	7%[46.1 µM]
CC(C)P(=O)(Cc1cccc(C#N)c1)C(C)C	11%	2.1%	3%	0%	nt	25%	9%	-6%
CC(C)N1CN=C(Nc2nc3ccccc3o2)NC1	-1%	nt	nt	0%	15%	?	nt	17%
CC(=O)N1CCc2cc(S(=O)(=O)NC(CC(C)C)C(=O)NCCc3cccc(C)c3)ccc21 (centres undefined)	nt	-5.7%	nt	nt	2%	-3%[46.1 µM]	5%	20%[46.1 µM]
O=C(CSc1nc2c(sc3ccccc32)c(=O)n1CCCN1CCCC1)NCc1ccco1	2%	nt	nt	-5%	-11%	?	nt	4%
Cc1cnc(NC(=O)Nc2ccccc2)c(C)n1	-2%	nt	-5%	-4%	11%	nt	nt	nt
O=C(COC(=O)C1CC1)Nc1nc(-c2ccc(F)c(F)c2)cs1	3%	nt	nt	-2%	13%	6%	nt	-3%
CCN(CC)C(=O)CC(c1cc(OC)c(OC)c(OC)c1)c1c(O)cc(OC)cc1OC (centres undefined)	0%	nt	2%	1%	-12%	nt	nt	nt
COc1cc(C(=O)N/N=C/c2coc3ccccc3c2=O)cc(OC)c1OC	-11%	nt	-11%	-2%	-15%	nt	nt	nt
COc1cccc(C=O)c1OCCCOc1cccc2cccnc12	1%	nt	-21%	0%	44%[activator]	nt	nt	nt

Next part
SMILES	RE007 growth inh	Cruzain inh Det	NS1 inh	SARS PLP yeast	StopGo reporter	MARV entry inh	Cruzain inh noDet	LASV entry inh
Cc1ccc(C(=O)OCC(=O)NCc2ccc3c(c2)OCO3)o1	3%	nt	nt	-8%	-15%	8%[46.1 µM]	nt	nt
CCN(CCCNC(=O)c1cc2cc3cc(OC)ccc3nc2s1)c1cccc(C)c1	nt	-3.9%	nt	nt	13%	-27%[46.1 µM]	4%	19%[46.1 µM]
Cc1ccc(S(=O)(=O)N2CCOCC2)cc1NC(=O)C(c1ccc(Cl)cc1)C(C)C (centres undefined)	2%	nt	nt	1%	-8%	?	nt	?
Cc1ccc(C(=O)Nc2ccc(S(=O)(=O)N3CCOCC3)cc2)cc1C	-3%	nt	3%	4%	-20%	nt	nt	nt
O=C(CNc1ccc2c(c1)OCO2)N/N=C\c1ccccc1Cl	-17%	-12%	26%	4%	55%[activator]	18%	?	11%
COC(=O)CCC/C=C1/SCC(NC(=O)c2ccccc2)C1NC(C)=O (centres undefined)	12%	nt	-2%	0%	-12%	nt	nt	nt
COCC(COCCCNC(=O)Nc1ccc(Br)cc1)OC (centres undefined)	-1%	-3.7%	-50%	-5%	2%	8%	-8%	5%
COc1cc(-c2noc(-c3ccc(N4CCN(C)CC4)c([N+](=O)[O-])c3)n2)cc(OC)c1OC	nt	-2.2%	nt	nt	-11%	4%[46.1 µM]	1%	7%[46.1 µM]
Cc1cccc(C(=O)NNC(=O)c2ccc(-c3ccccc3)cc2)c1	12%	-1.2%	6%	0%	15%	-28%	?	-15%
c1ccc2c(c1)nc(NC1CCCCC1)c1nncn12	10%	-2.6%	-81%	22%	-14%	1%	2%	5%
CCC(CC)c1nn2cc(-c3ccccc3)nc2s1	nt	-4.0%	nt	nt	?	?	-2%	20%[46.1 µM]
Cc1cc(C)c(C)c(S(=O)(=O)NCc2ccc(C(=O)N3CCOCC3)cc2)c1C	-23%	nt	-1%	3%	-10%	-16%	nt	0%
CCOc1ccc2nc(N(CCN(CC)CC)C(=O)c3ccc([N+](=O)[O-])cc3)sc2c1	3%	nt	nt	0%	-12%	?	nt	-5%[46.1 µM]
CN(C)S(=O)(=O)N(CC(=O)NCc1ccccc1)c1ccccc1	-2%	1.7%	8%	-6%	10%	9%	-10%	10%
Cc1nc(-n2nc(C)c(Cc3ccccc3Cl)c2C)sc1C(=O)N1CCCCC1C (centres undefined)	nt	-1.4%	nt	nt	-16%	5%[46.1 µM]	-9%	0%[46.1 µM]
CC(Cc1ccccc1)NC(=S)CN1CCCC1=S (centres undefined)	-13%	nt	-61%	-2%	-3%	?	nt	13%
C=CCC1CCCCC12NC(=O)NC2=O (centres undefined)	11%	5.6%	4%	-1%	-14%	-4%	3%	-3%
Cc1cccc(NNC(N)=S)c1	?	nt	5%	-5%	-9%	16%[46.1 µM]	nt	2%
Nc1nc(SCC(=O)Nc2ccccc2)nc2nc3c(cc12)CCCC3	-16%	-1.0%	?	-11%	33%[activator]	-5%	-3%	?
COc1ccc(N2C(=O)C3CCCCC3C2=O)cc1NC(=O)c1ccccc1 (centres undefined)	11%	nt	-1%	-3%	-17%	20%	nt	7%[46.1 µM]
Cc1ccc(N=Nc2c(N)n[nH]c2N)cc1	-14%	nt	9%	-2%	20%	16%[46.1 µM]	nt	-6%[46.1 µM]
O=C(Nn1c(-c2ccc(F)cc2)nc2ccccc2c1=O)C1CCCCC1	-6%	-2.2%	1%	-2%	nt	-16%	-2%	?
COc1cc(-c2nnc3sc(-c4ccco4)nn23)cc(OC)c1OC	11%	1.7%	4%	3%	-14%	-37%	14%	?
Cc1cc(=O)n2nc(N3CCCC(C(=O)NCc4ccccc4Br)C3)sc2n1 (centres undefined)	7%	nt	-10%	1%	8%	nt	nt	nt
O=C(C[n+]1ccccc1)N/N=C/c1ccc(O)cc1	-13%	nt	4%	1%	5%	15%[46.1 µM]	nt	5%

More structures:
SMILES	RE007 growth inh	Cruzain inh Det	NS1 inh	SARS PLP yeast	StopGo reporter	MARV entry inh	Cruzain inh noDet	LASV entry inh
O=C(c1ccc(Br)s1)N1CCCC1	-7%	6.2%	-51%	-19%	-10%	23%	9%	1%
COc1ccccc1C(c1nnnn1C(C)C)N1CCN(C(=O)c2ccco2)CC1 (centres undefined)	3%	nt	-11%	1%	-14%	-6%[46.1 µM]	nt	0%
Cc1cc2c(N3CCCCC3C)ncnc2s1 (centres undefined)	-16%	0.4%	-4%	-7%	-30%	-10%	5%	?
O=C(NCc1ccco1)c1ccc([N+](=O)[O-])cc1Cl	2%	nt	12%	15%	6%	nt	nt	nt
CCC1(C(=O)c2ccc(Cl)cc2)C2c3ccccc3OC(=O)C21C(=O)Nc1ccccc1 (centres undefined)	6%	-7.1%	?	-5%	-1%	-14%	0%	-1%
COc1ccc(/C=C2/SC(=O)N(CC(O)Cn3c4ccccc4c4ccccc43)C2=O)cc1 (centres undefined)	0%	-4.5%	4%	-21%	-4%	?	10µM*	-17%
CC1CCCCN1S(=O)(=O)c1ccc(NC(=O)c2cccc(-n3cnnn3)c2)cc1 (centres undefined)	1%	-1.2%	0%	-6%	-17%	1%	-27%	-9%
COc1cc2oc(=O)cc(-c3ccc(-c4ccc(C#N)cc4)cc3)c2c(OC)c1OC	17%	0.7%	nt	1%	?	nt	35µM*	nt
CCC1C(=O)N=C(SCC(=O)NC2CCCCC2)NC1=O (centres undefined)	-3%	nt	7%	0%	-7%	nt	nt	nt
CC(=O)NCCC(=O)Nc1cc(S(=O)(=O)N2CCCCC2)ccc1Oc1ccccc1	6%	nt	6%	2%	-8%	11%	nt	-1%
Cc1c(Br)c(C(F)(F)F)nn1CC(=O)NCc1ccccc1	1%	-2.9%	0%	2%	-27%	?	-10%	3%
CCOc1ccccc1NC(=O)C(CC(C)C)NC(=O)C1CCCCC1 (centres undefined)	-12%	5.8%	11%	-7%	35%[activator]	-16%	-12%	16%
CCC1CCc2c(sc(NC(=O)c3cccnc3)c2C(N)=O)C1 (centres undefined)	5%	nt	6%	-1%	-3%	15%[46.1 µM]	nt	?
Cc1ccccc1C(=O)c1cccn1CC(=O)NCc1ccc(Cl)cc1	3%	-4.6%	nt	0%	29%&14%	10%	0%	-13%
CCc1cc(=O)oc2cc(C)cc(OC(C)C(=O)NCc3ccccn3)c12 (centres undefined)	-15%	nt	-7%	4%	-18%	nt	nt	nt
